Screens from PubChem.
Beta2AR agonist – agonists of human beta-2 adrenergic receptor inducing internalization; P07550; Am2.2-beta2AR cells, FAP receptor internalization, flow cytometry; reference of the scale not given here; response, % (no concentration beside the values); hit rate 0.43% among 340,000;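 active = response above a set limit, near 3 SD of response in nonfluorescent compounds, cut at about 42% in these data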;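 also: stock transfer was 100 nL into about 11 µL; a reference agonist was the positive control; negative values mostly stem from fluorescent compounds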
Target sequence (P07550 whole entry, looked up): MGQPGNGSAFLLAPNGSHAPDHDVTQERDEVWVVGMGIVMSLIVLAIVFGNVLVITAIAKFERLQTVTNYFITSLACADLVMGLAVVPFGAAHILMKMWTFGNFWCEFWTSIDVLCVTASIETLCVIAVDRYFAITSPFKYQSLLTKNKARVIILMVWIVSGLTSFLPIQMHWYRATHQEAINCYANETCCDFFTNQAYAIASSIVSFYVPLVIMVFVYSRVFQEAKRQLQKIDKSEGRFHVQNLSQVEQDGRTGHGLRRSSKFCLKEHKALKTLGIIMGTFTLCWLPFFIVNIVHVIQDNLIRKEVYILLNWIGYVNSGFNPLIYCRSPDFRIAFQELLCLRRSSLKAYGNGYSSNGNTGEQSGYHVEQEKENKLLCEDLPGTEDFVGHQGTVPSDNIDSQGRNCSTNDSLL
rRNA inh HTS – inhibitors of bacterial rRNA selective over humanized ribosomes | E. coli WT GFP vs humanized-ribosome RFP mutants, fluorescence, 24 h; active compounds read low; DMSO median 0, no signal -100 | GFP signal change (wild-type ribosome), % (no concentration beside the values) | hit rate 1.6% among 350,000 | AID 720706;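 active = significant combined selectivity score with lowered wild-type GFP, culture density cut under 30%, mutant RFP and density less affected; inactive = any of these conditions unmet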; also: one replicate is shown; some compounds called inactive have numbers as strong as hits
ALR inh – blocks human ALR sulfhydryl oxidase activity; P55789; purified ALR, DTT oxidation, H2O2 HRP-luminol luminescence; inhibition, % (test concentration not listed); hit rate 3.8% among 290,000;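 active = mean and each replicate at 75% or more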;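 also: stock transfer was 7.5 nL into about 7.5 µL; 0% = neutral wells and 100% = wells with inactivated enzyme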
Target sequence (P55789 whole entry, looked up): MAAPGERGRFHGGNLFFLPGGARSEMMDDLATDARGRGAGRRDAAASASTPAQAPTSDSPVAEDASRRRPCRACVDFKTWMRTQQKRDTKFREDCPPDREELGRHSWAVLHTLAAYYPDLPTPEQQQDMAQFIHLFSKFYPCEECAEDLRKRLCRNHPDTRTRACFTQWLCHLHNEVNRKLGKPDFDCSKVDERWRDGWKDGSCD
T cruzi repl – T. cruzi replication inhibition. T. cruzi beta-gal in NIH3T3, luminescence, 90 h. inhibition, % (concentration not given with the values). hit rate 1.4% among 300,000;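 active = mean inhibition across valid replicates above about 55%, limit read from the data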;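 also: signal also drops with host cell toxicity which is not excluded here; 0% = plate median of DMSO wells and 100% = zero luminescence signal; higher percent means less beta-gal luminescence so fewer parasites; stock transfer was 50 nL into about 50 µL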
Calb FLC – affects C. albicans growth with fluconazole. C. albicans CaCi-2 (fluconazole-resistant clinical isolate) + fluconazole, Alamar Blue growth, 48 h. growth inhibition, % (test concentration not listed). hit rate 0.57% among 300,000. AID 1979;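 active = most replicates above 75%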;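 also: all wells also contain fluconazole at 8 µg/ml as a sub-toxic cotreatment; 0% = median of DMSO wells and 100% = median of geldanamycin control wells; wells of about 8 µL received 7.5 nL stock; the first replicate is given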
Beta cell apopt – blocks beta cell apoptosis. INS-1E cytokine-induced death, ATP luminescence, 48 h; percent of positive-control rescue, neutral wells zero. protection from apoptosis, % (test concentration not listed). hit rate 0.8% among 300,000;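 active = all replicates at 75% or more, or half of them and the mean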;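 also: 0% = cytokine-treated negative control wells and 100% = positive control rescue; higher means more ATP so stronger rescue from cytokine killing; wells of about 40 µL received 100 nL stock; the first replicate is given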
LANA-H2B inh – blocks KSHV LANA binding to histone H2A/H2B; Q9QR71; cell-free LANA-H2A/H2B peptide, fluorescence polarization; inhibition, % (test concentration not listed); hit rate 0.6% among 320,000; AID 2629; in the data active = inhibition mostly above about 10%, no sharp cut-off; inactive = mostly below about 6.7%;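 also: stock transfer was 7.5 nL into about 10 µL; 0% = median of vehicle wells and 100% = median of positive control wells; one replicate is shown; the record names a cut of 25% in any replicate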
A1 inh – inhibitors of the anti-apoptotic protein A1, read as caspase activation. MEF A1-2A-BIM cells, Caspase-Glo 3/7 luminescence, 3 h; percent of clofoctol response, vehicle zero. hit rate 0.066% among 330,000. caspase activation, % (test concentration not listed);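 active = over half of replicate activation scores above 10%, or exactly half above 10 with the replicate mean above 10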;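 also: wells of about 30 µL received 50 nL stock; many hits fall short of the cut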
rRNA inh HTS OD600 – second read-out of rRNA inh HTS, no call of its own (marks repeat the call); OD600 change, %; measured here: OD600 growth;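 optical density of the mix in the first replicate; 0 = DMSO median and -100 = no signal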
rRNA inh HTS RFP – recorded beside rRNA inh HTS, whose call it bears; RFP signal change, %; measured here: RFP humanized mutant strains;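 first replicate; 0 = DMSO median and -100 = no signal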
Active calls of the source: *; . = no result given. Some of the compounds tested; rates above refer to the full screens.

SMILES | Beta2AR agonist | rRNA inh HTS | rRNA inh HTS OD600 | rRNA inh HTS RFP | ALR inh | T cruzi repl | Calb FLC | Beta cell apopt | LANA-H2B inh | A1 inh
CCOC(=O)CC(C(=O)OCC)P(=O)(c1ccccc1)c1ccccc1 (centres undefined) | -7 | . | . | . | -6 | 9 | 12 | -4 | -5.2 | 2.1
Cc1ccsc1C(=O)OCC(=O)Nc1c(C)n(C)n(-c2ccccc2)c1=O | -9 | . | . | . | 9 | -10 | 2 | 6 | -5.0 | 1.0
CN(CC(=O)Nc1ccc([N+](=O)[O-])cc1Br)Cc1c(F)cccc1Cl | 6 | 5 | -6 | -4.8 | -5 | 34 | -2 | -1 | -7.5 | 0.3
COc1ccc(S(=O)(=O)Nc2ccccc2C)cc1 | 16 | . | . | . | 0 | -11 | -24 | 1 | 3.9 | 1.5
Cc1nn(-c2ccccc2)c(N2CCCC2)c1/C=N/NC(=S)Nc1ccc(F)cc1 | 4 | -1 | -1 | 6.7 | . | 40 | 19 | 11 | -0.8 | 0.5
Cc1ccc(C(=O)CC(C(=O)O)n2ccc(C)n2)cc1 (centres undefined) | 6 | 6 | 11 | -1.8 | 26 | -25 | 2 | 2 | -5.9 | 0.0
COc1ccc(C)cc1NS(=O)(=O)c1ccc2c(c1)CCN2C(C)=O | -11 | 2 | 0 | 0.0 | -3 | 14 | -14 | 2 | 3.0 | -0.2
Cc1ccc(Cl)cc1NC(=O)C1CCCN(c2cnccn2)C1 (centres undefined) | -5 | 5 | 14 | -3.0 | -6 | 20 | 3 | -6 | 1.0 | 1.0
O=C(O)c1ccc(NC(=O)c2cccc(C(=O)Nc3ccc(C(=O)O)cc3)c2)cc1 | 8 | -2 | -11 | 2.1 | 3 | -15 | 7 | -3 | -4.1 | -1.8
CN1CCN(S(=O)(=O)c2cccc(C(=O)Nc3sc4c(c3-c3nc5ccccc5[nH]3)CCCC4)c2)CC1 | -15 | 7 | 16 | -0.3 | -5 | 58* | -3 | 4 | 0.2 | 0.9

Another view of some results above.
Molecule	Beta2AR agonist	rRNA inh HTS	rRNA inh HTS OD600	rRNA inh HTS RFP	ALR inh	T cruzi repl	Calb FLC	Beta cell apopt	LANA-H2B inh	A1 inh
CN(CC(=O)Nc1ccc([N+](=O)[O-])cc1Br)Cc1c(F)cccc1Cl	6	5	-6	-4.8	-5	34	-2	-1	-7.5	0.3
COc1ccc(S(=O)(=O)Nc2ccccc2C)cc1	16	.	.	.	0	-11	-24	1	3.9	1.5
Cc1nn(-c2ccccc2)c(N2CCCC2)c1/C=N/NC(=S)Nc1ccc(F)cc1	4	-1	-1	6.7	.	40	19	11	-0.8	0.5
Cc1ccc(C(=O)CC(C(=O)O)n2ccc(C)n2)cc1 (centres undefined)	6	6	11	-1.8	26	-25	2	2	-5.9	0.0
COc1ccc(C)cc1NS(=O)(=O)c1ccc2c(c1)CCN2C(C)=O	-11	2	0	0.0	-3	14	-14	2	3.0	-0.2
Cc1ccc(Cl)cc1NC(=O)C1CCCN(c2cnccn2)C1 (centres undefined)	-5	5	14	-3.0	-6	20	3	-6	1.0	1.0
O=C(O)c1ccc(NC(=O)c2cccc(C(=O)Nc3ccc(C(=O)O)cc3)c2)cc1	8	-2	-11	2.1	3	-15	7	-3	-4.1	-1.8
CN1CCN(S(=O)(=O)c2cccc(C(=O)Nc3sc4c(c3-c3nc5ccccc5[nH]3)CCCC4)c2)CC1	-15	7	16	-0.3	-5	58*	-3	4	0.2	0.9

Next structures
SMILES | Beta2AR agonist | rRNA inh HTS | rRNA inh HTS OD600 | rRNA inh HTS RFP | ALR inh | T cruzi repl | Calb FLC | Beta cell apopt | LANA-H2B inh | A1 inh
COc1cc(NC(=S)N2CCC(C(N)=O)CC2)c(OC)cc1Cl | 2 | 0 | 3 | 1.1 | -1 | -13 | 10 | -4 | 1.7 | 0.0
Cc1[nH]nc2c1C(c1ccc(O)cc1)C1=C(CC(C)(C)CC1=O)N2 (centres undefined) | -20 | -2 | -2 | -3.7 | 30 | 0 | 3 | 0 | 0.1 | 0.3
CCOc1ccc(NC(=O)CN2CCc3cc4c(cc3C2)OCCCO4)cc1OCC | 0 | 6 | 12 | -0.5 | -17 | 13 | -8 | -3 | 2.3 | -0.4
Cc1ccc(C)c(NC(=O)CCN2CCN(c3ccccc3F)CC2)c1 | -7 | 9 | 4 | 0.3 | -10 | 4 | 12 | -3 | 0.6 | 0.6
CCCNC(=O)c1cc(-c2ccc3c(c2)OCO3)on1 | 3 | 1 | -1 | -3.3 | -6 | -7 | -1 | -5 | -1.4 | -3.9
CSCCC(N=C(NS(=O)(=O)c1ccccc1)c1ccccc1)C(=O)O (centres undefined) | 4 | 12 | 0 | -1.1 | -1 | -5 | 11 | 2 | -1.2 | -0.8
CCC[n+]1c2ccccc2cc2ccccc21 | 13 | -43 | -46 | -3.3 | 41 | 61* | 94* | 32 | 6.2 | 0.2
COc1nnc(-c2ccccc2)s1 | 2 | . | . | . | 2 | -26 | 0 | -8 | -7.4 | -0.2
Cc1cc(OCC(=O)O)c2cccc(C)c2n1 | 2 | . | . | . | . | -2 | -1 | 5 | -5.6 | -0.2
CN(C)S(=O)(=O)c1cccc(C(=O)NC2CCSc3ccccc32)c1 (centres undefined) | 2 | 2 | -5 | 0.4 | 0 | -5 | -13 | 3 | -0.6 | 0.2
C/C(=N\NC(=O)Cc1ccc(F)cc1)c1ccc(F)cc1 | -7 | . | . | . | -1 | -16 | -1 | -1 | -1.7 | -0.4
CCCCCCCN1C2=NCCN2c2ccccc21 | -1 | -3 | -7 | -4.7 | 16 | 33 | -44 | -4 | 6.0 | 1.2
CCOC(=O)c1ccc(S(=O)(=O)NC2CC2)cc1 | 3 | 4 | 8 | 1.0 | 54 | -10 | 2 | -7 | -3.0 | 1.3
CCOc1ccc(S(=O)(=O)n2nnc3ccccc32)cc1C | . | . | . | . | -5 | -6 | -6 | -5 | -3.1 | -1.1
O=S1(=O)CCC(NC(=S)N2CCOCC2)C1 (centres undefined) | 11 | . | . | . | -1 | -21 | -6 | . | -5.3 | 0.2
Nc1nc(N2CCN(c3ccc(Cl)cc3)CC2)n[nH]1 | -5 | 0 | 5 | -1.0 | 98* | 16 | 17 | . | 3.0 | 1.5
COc1cc(/C=C/C(=O)Oc2coc(CSc3ncccn3)cc2=O)cc(OC)c1OC | 4 | 7 | 12 | 9.6 | 9 | 4 | -19 | 0 | -3.5 | 0.2
CC1CCCCN1C(=O)CCS(=O)(=O)c1cccc2nonc12 (centres undefined) | 0 | 17 | 10 | -2.6 | -2 | 10 | -4 | 1 | -1.2 | 0.0
Cc1ccc(C)c(C(C)NC(=O)C2CC=CCC2C(=O)O)c1 (centres undefined) | 2 | 6 | 5 | 0.1 | -9 | . | . | -1 | . | -0.2
Cc1ccc(NCCCCO)cc1C | -3 | 17 | 28 | -0.4 | -2 | 3 | -8 | 7 | 1.8 | 0.4
COc1ccc(C2CCCN2C(=S)Nc2c(C)cccc2C)cc1OC (centres undefined) | -2 | 0 | -3 | -8.3 | -2 | -5 | 7 | 3 | 5.5 | -0.7
O=C(Nc1ccc(Cl)c(Cl)c1)Nc1cc(S(=O)(=O)N2CCOCC2)ccc1N1CCCC1 | 4 | . | . | . | -2 | 36 | -1 | 6 | -3.7 | 0.1
COc1ccc(-c2[nH]ncc2CN(C)CCCN2CCOCC2)cc1F | 2 | 8 | 13 | 0.8 | -1 | 1 | -4 | -3 | -10 | -0.7
CCc1cc(Br)ccc1NC(=O)C1CCCO1 (centres undefined) | -1 | . | . | . | 0 | -4 | -11 | 2 | -4.4 | 1.0
O=Cc1cn(-c2ccccc2)nc1-c1cc2ccccc2oc1=O | -1 | . | . | . | 36 | -15 | -2 | -3 | 1.4 | 0.3
CCOc1ccccc1NC(=O)CSc1nc(=O)n(CCN2CCOCC2)c2c1CCCC2 | -4 | -1 | -2 | -2.2 | 1 | 8 | -2 | 0 | 0.2 | 0.0
O=C(Cn1cnc2scc(-c3ccccc3)c2c1=O)N1CCOCC1 | 0 | . | . | . | -6 | -22 | -6 | -2 | -1.3 | -0.3
O=C(CSc1nnnn1C1CCCC1)NCc1ccccc1 | 6 | . | . | . | . | -15 | 9 | 5 | -0.8 | 0.1
CCn1c2ccccc2c2cc(NC(=O)CNCC3CCCO3)ccc21 (centres undefined) | 4 | -11 | -15 | 0.8 | 8 | 69* | 2 | -5 | -1.4 | 0.0
CC(=O)c1cccc(S(=O)(=O)NCCCN2CCOCC2)c1 | 1 | 11 | -1 | 3.2 | -4 | . | . | -1 | 1.0 | 0.3
Cc1cc(=O)[nH]c(SCC(=O)Nc2ncc(S(=O)(=O)c3ccc([N+](=O)[O-])cc3)s2)n1 | 14 | -1 | 1 | -2.3 | -30 | 4 | 25 | -2 | 3.3 | 0.2
O=C1c2ccccc2C(=O)N1CCCCN(C(=O)c1cc2ccccc2oc1=O)c1ccc(F)cc1F | 0 | . | . | . | -3 | -12 | -1 | -4 | 6.2 | 0.1
CC(=O)C[C@H](O)CC(=O)[C@H]1OC(=O)CCCCCCCCc2ccccc21 | 0 | 4 | 1 | 1.5 | -3 | . | . | -5 | -4.5 | 0.0
COC(=O)C1C(=O)c2c([nH]c(C(=O)OC3CCCC3C)c2C)CC1C (centres undefined) | 0 | 0 | -18 | -4.7 | -1 | -2 | 7 | 7 | -7.2 | -0.8
COc1ccc(N2C(=O)NC(NS(=O)(=O)c3ccc(Cl)cc3)(C(F)(F)F)C2=O)cc1 (centres undefined) | -5 | -6 | -1 | -1.4 | -2 | -11 | 3 | 5 | 10 | 0.2
COc1ccc(/C=C/c2onc(C)c2S(=O)(=O)N2CCC(C(=O)N3CCCCCC3)CC2)cc1 | -1 | 0 | -6 | 4.2 | -1 | -1 | 3 | 10 | 1.6 | 0.1
COc1ccc(S(=O)(=O)N2CCCC(C(=O)Nc3ccc(NC(=O)c4ccccn4)cc3)C2)cc1 (centres undefined) | 46* | . | . | . | 14 | 18 | -24 | -1 | -4.4 | 0.6
Cc1nn(-c2ccccc2)c2sc(C(=O)c3c(N)n(C)c(=O)n(C)c3=O)cc12 | -18 | . | . | . | -7 | 13 | -6 | -2 | -3.8 | -0.3
CN(c1ccc(C(=O)NCCSCc2ccccc2)cc1)S(=O)(=O)c1ccccc1 | 4 | . | . | . | -29 | 17 | -3 | -11 | 1.5 | 0.8
COc1ccccc1CCCNC(=O)C1CCC(=O)N(CCc2cccc(F)c2)C1 (centres undefined) | -5 | -4 | -10 | 1.6 | 1 | -11 | -6 | -8 | 2.0 | -0.6
C#CCOCCOCCOCCNc1nc(N2CCN(C(=O)[C@H]([C@@H](C)CC)n3cc(CCCCN)nn3)CC2)nc(N2CCN(C(=O)[C@H](C)n3cc(CCC(=O)O)nn3)CC2)n1 | 3 | 7 | 4 | 6.6 | . | -16 | -7 | 0 | -1.6 | 0.8
COc1ccc(C(=O)Nc2ccnn2C2CCN(C(=O)C3CCOC3)CC2)cc1 (centres undefined) | -3 | 0 | 7 | 0.7 | -3 | -15 | -4 | -3 | -4.1 | -1.5
